rRNA inh HTS: selective bacterial rRNA inhibition in E. coli; 1.6% of 350,000 active; AID 720706; GFP signal change (wild-type ribosome), % (concentration not given with the values); E. coli WT GFP vs humanized-ribosome RFP mutants, fluorescence, 24 h; hits give low values; DMSO median 0, no signal -100;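 active means significant combined selectivity score with lowered wild-type GFP, culture density cut under 30%, mutant RFP and density less affected; inactive means any of these conditions unmet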; further: one replicate is shown; some compounds called inactive have numbers as strong as hits
rRNA inh HTS OD600: second read-out of rRNA inh HTS, no call of its own (marks repeat the call); OD600 change, %; measured here: OD600 growth;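 optical density of the mix in the first replicate; 0 = DMSO median and -100 = no signal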
rRNA inh HTS RFP: also measured in rRNA inh HTS; calls as there; RFP signal change, %; measured here: RFP humanized mutant strains;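 first replicate; 0 = DMSO median and -100 = no signal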
* = called active by the depositor; i = inactive; x = not tested or not shown; & = joins results of further samples.

cpd	rRNA inh HTS OD600	rRNA inh HTS	rRNA inh HTS RFP	canonical_smiles
1	-0.2	-1.2	0.8	CNC(=O)C[C@H]1CC[C@@H]2[C@@H](COc3ccc(NC(=O)c4cccs4)cc3C(=O)N2C)O1
2	-4.1	2.4	-1.2	COCC(=O)N(C[C@H]1N[C@H](CO)[C@@H]1c1ccc(C2=CCCC2)cc1)C(C)C
3	6.6	3.7	-3.3	CCCNC(=O)C[C@@H]1CC[C@H]2[C@H](COc3ccc(NC(=O)COC)cc3C(=O)N2C)O1
4	4.1	3.8	-0.1	CCCN1C[C@@H](C)[C@@H](OC)CN(C)C(=O)c2ccc(NC(=O)CC)cc2OC[C@H]1C
5	-55.1	-1.8	28.4	O=C(c1ccncc1)N1CC(=O)N2[C@@H](CO)[C@H](c3ccc(C#CCC4CCCC4)cc3)[C@@H]2C1
6	-53.4	-20.8	18.6	COC(=O)C[C@H]1CC[C@@H]2[C@@H](COc3ccc(NC(=O)Nc4ccc(Cl)cc4)cc3C(=O)N2C)O1
7	1.1	1.0	3.0	Cc1ccccc1CN1C(=O)CSCC1(C)C(=O)Nc1ccc2c(c1)OCCO2 (configuration not stated)
8	2.7	-7.2	-4.8	CCCCNC(=O)c1nc(-c2cccnc2OC)oc1-c1ccc(Cl)cc1
9	-10.5	-1.2	-1.4	C[C@@H]1CN([C@H](C)CO)S(=O)(=O)c2ccc(-c3cccnc3)cc2O[C@H]1CN(C)Cc1cccnc1
10	18.7	18.1	3.3	O=C(NC(CC1=CCCCC1)c1ccccc1)C(F)(F)F (configuration not stated)
11	-2.2	-5.2	6.7	C[C@H]1CCCCO[C@H](CN(C)S(=O)(=O)c2cccs2)[C@@H](C)CN([C@@H](C)CO)C(=O)c2cc(NC(=O)c3ccccc3)ccc2O1
12	3.6	-0.9	1.0	Cc1noc(C)c1NC(=O)N(C)C[C@H]1Oc2c(NC(=O)Nc3ccccc3)cccc2C(=O)N([C@@H](C)CO)C[C@H]1C
13	-30.1	-13.7	-3.6	CC(C)[C@@H]1CC=CC[C@H](C)Oc2ccccc2C(=O)N(C)[C@H](C(C)C)C(=O)N1 (mixture of isomers)
14	11.3	18.8	4.5	CCNC(=O)N(C)[C@H]1C[C@@H](c2ccccc2)N(C(C)=O)C[C@H]1CO
15	3.9	-0.1	-1.0	C[C@@H]1CN([C@@H](C)CO)C(=O)c2cc(NC(=O)NC3CCCCC3)ccc2O[C@@H](C)CCCCO[C@H]1CN(C)C(=O)Cc1ccccc1
16	-15.8	2.7	6.6	COc1ccc(CN(C)C[C@H]2OCCCC[C@@H](C)Oc3ccc(NC(=O)Nc4ccccc4)cc3C(=O)N([C@@H](C)CO)C[C@H]2C)cc1
17	3.2	0.0	-1.3	C[C@@H]1CC(=O)NCC/C=C\C[C@@H](c2ccc3c(c2)OCO3)NC1=O
18	-24.1	-1.8	-2.6	CN1C(=O)c2cc(NC(=O)c3ccc(C(F)(F)F)cc3)ccc2OC[C@@H]2O[C@@H](CC(=O)NCc3ccc4c(c3)OCO4)CC[C@H]21
19	x	i	x	O=C(C[C@H]1CC[C@@H]2NC[C@@H](O)COC[C@H]2O1)NCc1ccc2c(c1)OCO2
20	-1.0	0.7	0.6	O=C(Nc1ccccc1)Nc1ccc2c(c1)[C@@H]1C[C@@H](CC(=O)N3CCOCC3)O[C@@H](CO)[C@@H]1O2
21	9.5	1.2	1.3	C[C@@H]1CCCCO[C@H](CN(C)Cc2ccc(C(F)(F)F)cc2)[C@@H](C)CN([C@H](C)CO)C(=O)c2cc(NC(=O)C3CCCCC3)ccc2O1
22	-2.3	-0.3	-2.9	O=C(CN1CCOCC1)N[C@H]1CC[C@@H](CCn2cc(C3CCCCC3)nn2)O[C@@H]1CO
23	-7.1	-3.3	-1.4	C/C=C/c1ccc([C@H]2[C@@H](CO)N(C(=O)CC)[C@@H]2CN(C(=O)C2CC2)C(C)C)cc1
24	4.2	2.3	-1.9	CC(=O)N1[C@@H]2c3cccc(=O)n3C[C@H]1[C@H](CO)[C@H]2C(=O)NC1CCCC1
25	-0.9	-1.1	-0.1	COc1ccc2c3c([nH]c2c1)[C@@H](CO)N(Cc1nccs1)CC31CN(C(=O)C2CCCCC2)C1
26	3.7	4.6	0.3	CC(C)(C)NC(=O)C(c1ccncc1)n1c(=O)c(-c2ccco2)nc2ccccc21 (configuration not stated)
27	5.7	0.4	-1.0	O=C(C1CC1)N1C[C@@H]2[C@H](c3ccccc31)[C@H](CO)N2C(=O)c1ccccn1
28	9.6	3.3	2.4	COc1ccc(NC(=O)N(C)C[C@@H]2Oc3ccc(NC(=O)Nc4c(C)noc4C)cc3C(=O)N([C@@H](C)CO)C[C@H]2C)cc1
29	5.6	-5.5	3.1	CCCC#Cc1ccc2c(c1)[C@@H]1[C@@H](CCN1C(=O)C1CCC1)[C@@H](CO)N2
30	-70.0	-46.5	-6.3	O=C(CCc1c[nH]c2ccccc12)Nc1ccc(Nc2cccnc2)c(Br)c1
31	2.9	0.8	3.6	C[C@@H]1CN([C@H](C)CO)S(=O)(=O)c2ccc(C#CC3CCCC3)cc2O[C@H]1CN(C)C(=O)c1cccc(F)c1
32	12.3	6.1	3.0	C[C@H](O)C#Cc1ccc2c(c1)O[C@H](CN(C)CC1CCOCC1)[C@H](C)CN([C@H](C)CO)S2(=O)=O
33	6.8	1.7	-3.2	C[C@@H]1CCCCO[C@@H](CN(C)C(=O)Nc2ccc(C(F)(F)F)cc2)[C@H](C)CN([C@@H](C)CO)C(=O)c2cc(NC(=O)Cc3ccccc3)ccc2O1
34	14.9	0.4	1.3	C[C@@H]1CN([C@H](C)CO)C(=O)c2cc(C#CC3CC3)cnc2O[C@H]1CN(C)C(=O)c1ccncc1
35	0.6&-82.0	-5.2&-61.4	2.5&-20.3	CO[C@H]1CN(C)C(=O)c2cc(NC(=O)Nc3cc(Cl)cc(Cl)c3)ccc2OC[C@H](C)NC[C@@H]1C
36	2.8	4.9	-0.7	CCCNC(=O)N1[C@H](CO)[C@@H]2c3ccccc3N(C(=O)c3cccnc3)C[C@@H]21
37	6.2	-0.4	-1.3	COC(=O)C[C@@H]1C[C@H]2c3cc(NS(=O)(=O)c4ccc(OC)cc4)ccc3O[C@H]2[C@@H](CO)O1
38	11.0	9.1	0.2	COC(=O)c1cccc(-n2c(C)cc(O)cc2=O)c1
39	-1.2	-2.2	-1.5	CCC(=O)N1C[C@@H](C)[C@H](OC)CN(C)C(=O)c2cc(NC(=O)c3cc(C)on3)ccc2OC[C@@H]1C
40	11.4	6.7	-1.4	CCCNC(=O)N1CC(=O)N2[C@@H](CO)[C@@H](c3ccc(C#Cc4ccccc4)cc3)[C@@H]2C1
41	0.5	-0.3	0.7	C[C@@H]1CN([C@H](C)CO)C(=O)c2cccc(NC(=O)CCCCCC(=O)Nc3ccccc3N)c2O[C@H]1CN(C)C(=O)NC1CCCCC1
42	-0.8	-1.8	0.4	C[C@@H]1CN([C@@H](C)CO)S(=O)(=O)c2ccc(C#CC3CCCC3)cc2O[C@@H]1CN(C)C(=O)Nc1cc(F)ccc1F
43	2.5	2.1	-0.6	CO[C@@H]1CN(C)C(=O)c2ccc(NS(=O)(=O)c3cccc(C)c3)cc2OC[C@@H](C)NC[C@@H]1C
44	-0.2	3.2	-1.5	COCC(=O)N(C)C[C@@H]1Oc2cc(C#CC(C)C)ccc2S(=O)(=O)N([C@@H](C)CO)C[C@@H]1C
45	-5.4	3.0	7.8	C[C@H](CO)N1C[C@H](C)[C@H](CN(C)C(=O)Cc2ccncc2)Oc2cc(C#Cc3ccccc3F)ccc2S1(=O)=O
46	5.7	4.8	2.7	Cc1ccc(S(=O)(=O)N(C)C[C@H]2Oc3ccc(NC(=O)Nc4cccc5ccccc45)cc3C(=O)N([C@H](C)CO)C[C@@H]2C)cc1
47	-14.0	-1.3	3.8	CC(C)C#Cc1ccc2c(c1)O[C@H](CN(C)C(=O)C1CCCCC1)[C@H](C)CN([C@@H](C)CO)S2(=O)=O
48	-16.2	-17.6	0.4	N#Cc1ccc(-c2ccc3c(c2)[C@@H]2[C@@H](CCN2S(=O)(=O)c2ccccc2F)[C@H](CO)N3)cc1
49	14.6	3.2	-5.6	CC(=O)N(C[C@H]1N[C@H](CO)[C@@H]1c1ccc(-c2cncnc2)cc1)C1CCCC1
50	8.0	2.3	1.0	CCCNC(=O)C[C@@H]1C[C@H]2c3cc(NC(=O)c4cccnc4)ccc3O[C@H]2[C@@H](CO)O1
51	-3.9	-2.2	0.5	CC(C)NC(=O)Nc1ccc2c(c1)C(=O)N([C@@H](C)CO)C[C@@H](C)[C@@H](CN(C)Cc1ccc3c(c1)OCO3)OCCCC[C@H](C)O2
52	5.8	3.1	-4.3	CO[C@H]1CN(C)C(=O)c2cc(NC(=O)C3CCOCC3)ccc2OC[C@@H](C)N(C(=O)c2ccccc2)C[C@H]1C
53	-8.7	-1.5	-2.9	Cc1noc(C)c1S(=O)(=O)N(C)C[C@H]1OCCCC[C@@H](C)Oc2ccc(NC(=O)CCC(F)(F)F)cc2C(=O)N([C@@H](C)CO)C[C@@H]1C
54	-3.9	8.4	-3.8	COCCN1C(=O)CN(S(C)(=O)=O)CC1(C)C(=O)Nc1c(C)cccc1C (configuration not stated)
55	-2.6	3.6	0.9	CO[C@H]1CN(C)C(=O)c2cc(NC(=O)c3ccc(F)cc3)ccc2OC[C@@H](C)NC[C@@H]1C
56	2.3	6.6	-1.4	CCCC#Cc1ccc2c(c1)O[C@H](CN(C)C(=O)CN(C)C)[C@@H](C)CN([C@H](C)CO)S2(=O)=O
57	10.3	3.7	-3.6	COc1ccc2c3c(n(C)c2c1)[C@H](CO)N(C(=O)C1CCOCC1)CC31CCN(C)CC1
58	-40.1	-7.9	21.4	O=C(Nc1ccc(F)cc1)N1CC(=O)N2[C@H](CO)[C@H](c3ccc(C#Cc4ccccc4)cc3)[C@@H]2C1
59	11.6	7.9	-1.0	C=C(C)C[C@@H]1CCn2nncc2COCCNC1=O
60	-14.4	-9.5	3.4	O=C(C[C@H]1C[C@@H]2c3cc(NC(=O)NC4CCCCC4)ccc3O[C@@H]2[C@@H](CO)O1)NC1CCCCC1

Arranged by count of non-hydrogen atoms (high to low): part of the list above.
cpd	rRNA inh HTS OD600	rRNA inh HTS	rRNA inh HTS RFP	canonical_smiles
46	5.7	4.8	2.7	Cc1ccc(S(=O)(=O)N(C)C[C@H]2Oc3ccc(NC(=O)Nc4cccc5ccccc45)cc3C(=O)N([C@H](C)CO)C[C@@H]2C)cc1
56	2.3	6.6	-1.4	CCCC#Cc1ccc2c(c1)O[C@H](CN(C)C(=O)CN(C)C)[C@@H](C)CN([C@H](C)CO)S2(=O)=O
55	-2.6	3.6	0.9	CO[C@H]1CN(C)C(=O)c2cc(NC(=O)c3ccc(F)cc3)ccc2OC[C@@H](C)NC[C@@H]1C
50	8.0	2.3	1.0	CCCNC(=O)C[C@@H]1C[C@H]2c3cc(NC(=O)c4cccnc4)ccc3O[C@H]2[C@@H](CO)O1
49	14.6	3.2	-5.6	CC(=O)N(C[C@H]1N[C@H](CO)[C@@H]1c1ccc(-c2cncnc2)cc1)C1CCCC1
54	-3.9	8.4	-3.8	COCCN1C(=O)CN(S(C)(=O)=O)CC1(C)C(=O)Nc1c(C)cccc1C (configuration not stated)
59	11.6	7.9	-1.0	C=C(C)C[C@@H]1CCn2nncc2COCCNC1=O

(next part)
cpd	rRNA inh HTS OD600	rRNA inh HTS	rRNA inh HTS RFP	canonical_smiles
61	3.4	-1.6	-3.2	CNC(=O)C[C@@H]1CC[C@H]2[C@@H](COc3ccc(NC(=O)c4cscn4)cc3C(=O)N2C)O1
62	-1.5	-4.2	-2.9	O=C(C[C@@H]1C[C@H]2c3cc(NS(=O)(=O)c4ccc(F)cc4)ccc3O[C@H]2[C@@H](CO)O1)NCC1CC1
63	5.2	0.5	0.3	CC(=O)Nc1cccc2c1O[C@H](CN(C)C(C)=O)[C@H](C)CN(C)C2=O
64	-1.1	-0.7	-3.4	C[C@@H]1CN([C@@H](C)CO)C(=O)c2cccc(NC(=O)Nc3ccc4c(c3)OCO4)c2O[C@@H]1CN(C)Cc1ccc(C(=O)Nc2ccccc2N)cc1
65	-5.9	-3.1	-1.3	COc1ccc(S(=O)(=O)Nc2ccc3c(c2)CC(=O)N([C@H](C)CO)C[C@@H](C)[C@H](CN(C)S(=O)(=O)c2ccc(F)cc2)O3)cc1
66	4.8	-4.2	-3.8	CC(C)NC(=O)N(C)C[C@@H]1Oc2c(cccc2N(C)C)C(=O)N(C)C[C@@H]1C
67	1.0	-1.4	-2.6	CN1C(=O)c2cc(NC(=O)c3ccc(Cl)cc3)ccc2OC[C@@H]2O[C@@H](CC(=O)O)CC[C@@H]21
68	-3.9	2.2	1.4	C[C@@H]1CCCCO[C@H](CN(C)Cc2ccc(C(F)(F)F)cc2)[C@@H](C)CN([C@H](C)CO)C(=O)c2cc(NC(=O)Cc3ccccc3)ccc2O1
69	0.5	-1.2	-0.3	CC(C)NC(=O)N(C)C[C@@H]1Oc2ccc(N(C)C)cc2CC(=O)N(C)C[C@H]1C
70	-1.4	8.5	-3.5	CN(C)CC(=O)N1CC[C@H]2[C@@H]1c1cc(Br)ccc1N(C)[C@H]2CO
71	-15.3	-12.1	3.5	COc1ccc(NC(=O)Nc2cccc3c2O[C@@H](CN(C)Cc2ccc(Cl)c(Cl)c2)[C@@H](C)CN([C@@H](C)CO)C3=O)cc1
72	5.3	3.2	-2.4	C[C@@H]1CCCCO[C@H](CN(C)Cc2ccc(C(=O)O)cc2)[C@H](C)CN([C@@H](C)CO)C(=O)c2cc(NS(=O)(=O)c3cn(C)cn3)ccc2O1
73	0.5	2.0	0.6	C[C@H](CO)N1C[C@H](C)[C@H](CN(C)C)OCCCC[C@H](C)Oc2ccc(NC(=O)Nc3ccc(F)cc3)cc2C1=O
74	5.6	1.2	-2.2	O=C(C1CCOCC1)N1[C@@H](CO)[C@@H]2c3ccccc3NC[C@@H]21
75	1.5	-2.2	0.3	C[C@H]1CN(C)C(=O)Cc2cc(NS(C)(=O)=O)ccc2O[C@@H]1CN(C)C
76	5.9	2.8	0.2	CO[C@@H]1CN(C)C(=O)c2ccc(NS(C)(=O)=O)cc2OC[C@@H](C)N(Cc2ccccn2)C[C@H]1C

Not all compounds are listed. The share of hits here may be higher or lower than overall.
